From PubChem BioAssay
AID504770: growth inhibition of E. coli YBA685, primary screen, V. cholerae RctB inhibitors; z-score (concentration not given with the values); AID 504770, 2011; E. coli YBA685 rctB-dependent plasmid, OD600 growth, 3 h; active compounds read low; 130,000 tested, 0.27% active;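 active = z-score under -2 on both plates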;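 note: wells of about 30 µL received 100 nL stock; score is relative to mean and SD of the test wells; the first replicate is given; strong numbers were not always called active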
Ba CapD inh: Bacillus anthracis CapD inhibitors, primary screen, biochemical, fluorescence intensity; CapD gamma-glutamyltranspeptidase (Bacillus anthracis Ames Ancestor); purified CapD enzyme, fluorescence intensity read-out; active compounds read low; some hits fall short of the stated cut; z-score (concentration not given with the values); 140,000 tested, 0.23% active; AID 492967, 2010;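 active = z-score under -4 in either of two replicates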;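 note: stock transfer was 100 nL into about 40 µL; score is relative to mean and spread of the plate; one replicate is shown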
The depositor's hits bear a star; i = inactive; x = not tested or not shown; & = joins results of further samples. Rows were taken by chance. Share with any hit: about 0.37%.

SMILES	AID504770	Ba CapD inh
Nc1nnc(CCCCn2c(-c3nonc3N)nc3ccccc32)s1	0	x
CC1(C)NNC(=S)N(Cc2cccc3ccccc23)C1=O	0.05	x
CC(C)N1C(=O)CC(Nc2ccc(N3CCOCC3)cc2)C1=O (configuration not stated)	2.4	-1.39
COc1ccccc1CNC(=O)N(C)C	0.45	0.095
CCSC1=NCN(Cc2cccs2)CN1	1.15	-1
Cn1c(-c2ccc(Cl)cc2)[n+](C)c2ccccc21	-0.25	0.665
C=C(C)C1Cc2c(C)nn(S(=O)(=O)c3ccc(C)cc3)c2C1 (configuration not stated)	-0.65	-0.41
CS(=O)(=O)c1ccccc1-c1nnc(NC(=O)c2cccc(N3C(=O)CCC3=O)c2)o1	0.35	x
CCOC(=O)c1c(N)sc(C(O)(C(F)(F)F)C(F)(F)F)c1-c1ccc(Cl)cc1	0	x
Nc1sc2ccccc2[n+]1CC(=O)c1ccccc1	-0.6	0.2
O=C(O)/C(=C/C(=O)c1ccccc1)Nc1ccc(OC(F)(F)F)cc1	-0.1	-3.2
N#Cc1ccccc1NC(=O)CN1CCNC(=O)C1	-0.05	x
Cc1cccc(Cc2c(C)[nH]c(=O)c(C#N)c2C)c1	-0.1	14.2
O=C(O)c1ccc(COc2ccccc2)cc1	0.1	x
O=C1NC(=O)C(=CN2CCN(S(=O)(=O)c3ccc(Cl)cc3)CC2)C(=O)N1	-0.4	x
CCOC(=O)c1cccc(N2C(=O)C3C4c5ccccc5C(C(C)=O)(c5ccccc54)C3C2=O)c1 (configuration not stated)	x	0.64
NNC(=O)CNc1ccc2c(c1)OCO2	2.15	-0.23
O=C(c1cccs1)N(c1ccccc1)C1C=CS(=O)(=O)C1 (configuration not stated)	-0.3	x
Cc1cc(Cl)ccc1OCC(=O)OCC(=O)c1ccc(Cl)cc1	-0.6	-0.18
CCC1=NN(C(=O)c2ccccc2O)C(O)(c2ccc(Br)cc2)C1 (configuration not stated)	x	-2.92
CC1CC(C)CN(S(=O)(=O)c2ccc(F)c(C(=O)Nc3cccc(F)c3)c2)C1 (configuration not stated)	-0.45	0.18
COCC(=O)NC(C)c1nc2ccccc2[nH]1 (configuration not stated)	0.1	-0.07
CCN1Cc2cccc(C(=O)Nc3ccc(Br)cc3)c2C1=O	-0.25	0.545
CCN(CC)C(=S)Sc1ncnc2sc3c(c12)CCCC3	-0.1	0.025
Cc1ccn2c(NC(=O)C(C)(C)Oc3ccc(Cl)cc3)c(-c3ccc(F)cc3)nc2c1	-0.35	73
CCOC(=O)c1[nH]c2c([N+](=O)[O-])cc(OCC)cc2c1CCN1C(=O)c2ccccc2C1=O	x	0.255
Cc1ccc(NC(=S)NCc2ccncc2)c(C)c1	x	0.64
Cc1nc2oc3c(-c4ccc(Br)cc4)ncnc3c2c2c1COC(C)(C)C2	x	0.085
Cn1c(C(=O)NC2CC2)cc2sccc21	-0.7	-0.21
CN(C)C(=O)COc1ncnc2sc3c(c12)CCC3	-0.9	x
Cc1ccc(-c2noc(-c3ccc(Oc4cc(Cl)cc(Cl)c4)o3)n2)cc1	0.15	0.595
CCN1C2c3ccccc3N(S(=O)(=O)c3ccc(C)cc3)C1c1ccccc1N2S(=O)(=O)c1ccc(C)cc1	x	-0.46
CN(C)c1ccc(N=Cc2cccn2C)cc1	-0.55	1.3
O=C(Nc1ccccc1-c1nc2ccccc2s1)c1ccccc1[N+](=O)[O-]	x	2.73
CC1=CS(=O)(=O)CC1Sc1n[nH]c(C)n1 (configuration not stated)	0.15	7.52
CN(C)c1ccc(C2Nc3cccc4cccc(c34)N2)cc1	x	71
COc1ccc(C(=O)NCC(=O)c2ccccc2)cc1	-0.8	-0.055
CN(CCC#N)S(=O)(=O)c1cn(C)c(=O)n(C)c1=O	0.95	x
O=C(NC1=NCCN1)c1c(Cl)cccc1Cl	-0.1	0
CCOC(=O)c1c(CN2CCCCC2C)n(C)c2cc(Br)c(OC(C)=O)cc12 (configuration not stated)	0.75	-0.765
Cc1ccccc1C(=O)NCC(=O)O	-0.25	x
COc1cc(/C(O)=C(\C#N)c2nc3ccccc3s2)cc(OC)c1OC	0.4	i
O=C(NC(=S)NCC1COc2ccccc2O1)c1ccc(Cl)cc1 (configuration not stated)	-0.05	0.37
Oc1oc(-c2ccccc2)nc1C1=Nc2ccccc2CC1	1&1.25	1.2
COc1ccc(C(NC(=O)c2cccc(OC)c2)c2cc(Cl)c3cccnc3c2O)cc1 (configuration not stated)	x	-0.24
CC1=C(NS(=O)(=O)c2cccc(C(=O)O)c2)CN(c2ccccc2)N1C	-0.6	x
N#CC1(C#N)[C@H](c2ccccc2)[C@@H](C(=O)c2ccccc2)N2c3ccc4ccccc4c3C=C[C@@H]21	x	6.56
CCC1CCCCN1C(=O)CSc1nc2ncccc2o1 (configuration not stated)	-0.6	-0.565
Cc1ccc(N2C(=O)CC(NCc3ccc(S(N)(=O)=O)cc3)C2=O)cc1Cl (configuration not stated)	1.4	0.37
CC(SCc1ccccc1)C(=O)Nc1cccnc1 (configuration not stated)	-0.85	2.15

The list goes on:
SMILES	AID504770	Ba CapD inh
CCC(C)NC(=O)c1cnc2n(c1=O)CCS2 (configuration not stated)	1.15	x
CC(C)(C)C1CCc2c(sc(NC(=O)CSc3nnc(-c4ccncc4)o3)c2C#N)C1 (configuration not stated)	0.75	x
CCCN(CCC)S(=O)(=O)c1ccc2c(c1)Cc1cc(S(=O)(=O)N(CCC)CCC)ccc1-2	x	-1.08
CN(CCOC(=O)Nc1ccccc1)c1ccc(C#N)cn1	1.25	3.41
COc1ccc(CC2SC(=Nc3ccccc3)NC2=O)cc1 (configuration not stated)	x	-0.12
Cc1ccsc1/C=C/C(=O)Nc1ccccc1C(F)(F)F	0.15	3.9
O=C(Nc1n[nH]c(C(F)(F)F)n1)c1cccs1	-0.25	x
O=C(CSc1ccc(Cl)cc1)NCC1CCCO1 (configuration not stated)	0.5	-0.04
CC1(C)CC(=O)C2=C(C1)c1c(ccc3ccccc13)NC2c1cn[nH]c1-c1ccccc1 (configuration not stated)	x	-0.295
Nn1c(SC(C(=O)N2CCCCC2)c2ccccc2)nnc1C1CC1 (configuration not stated)	-0.75	x
c1ccc2c(c1)NC(C1Nc3ccccc3O1)O2 (configuration not stated)	1.8	0.385
Oc1ccccc1-c1cc(C(F)(F)F)n(-c2ccccc2)n1	-0.6	3.19
C=CCN(C(=O)c1noc2c1CCCC2)c1ccccc1	0.45	-0.085
CCOC(=O)c1cc(CC)sc1NC(=O)C(Cl)Cl	x	0.475
O=C(O)CC1(CC(=O)NCC(O)c2ccccc2)CCCC1 (configuration not stated)	2.45	0.51
CCc1nn(CC(=O)NCCCN2CCCCC2CC)c(=O)c2cc3sc(C)cc3n12 (configuration not stated)	-0.9	-0.16
CCN1C(=O)C2C(c3ccc(OC)cc3)NC(CC)(C(=O)OC)C2C1=O (configuration not stated)	-0.65	x
CCN(CC)S(=O)(=O)c1cccc(C(=O)OCC(=O)c2cccs2)c1	1.8	x
O=C(CSC1=NCCS1)n1c2c(c3ccccc31)CCCC2	-0.05	-0.315
O=C(OC(C(=O)NCc1ccc2c(c1)OCO2)c1ccccc1F)c1ccco1 (configuration not stated)	-0.2	x
O=C(Cn1cnc2c(nnn2Cc2ccccc2F)c1=O)NCc1ccc2c(c1)OCO2	-2.5	-0.435
C=CCc1cccc2cc(C(N)=O)c(=N)oc12	0.4	x
COc1ccccc1CNC(=O)c1ccc(N2CC3CC(C2)c2cccc(=O)n2C3)c(NC(=O)c2ccncc2)c1 (configuration not stated)	-0.2	-0.125
COc1ccc(N2CCOCC2)c(NC(=O)c2ccco2)c1	0.1	x
Cc1cc(C(=O)OCC(=O)c2ccc3c(c2)OCO3)c2ccccc2n1	0.75	x
CC(C(=O)C12CC3CC(CC(C3)C1)C2)N(C)C (configuration not stated)	0.05	0.885
Cc1c(-n2cccc2)cc2c(c1[N+](=O)[O-])C(C)(C)CC2(C)C	x	0.215
CCN(C(=O)C(C)Oc1ccccc1)C1CCCCC1 (configuration not stated)	0.05	-0.44
Cc1sc(-c2cccnc2)nc1OC(=O)c1ccc(Cl)cc1Cl	x	-1.15
CCCN(CC(=O)Nc1ccc(F)c(F)c1F)Cc1c(C(=O)OCC)oc2ccccc12	-0.1	x
Cc1cc(C)n(C(C)CNC(=O)c2ccccc2)n1 (configuration not stated)	-0.85	x
CCOC(=O)N1CCC(n2c(SCC(=O)N(C)Cc3ccccc3)nc3ccccc3c2=O)CC1	0.15	-0.105
Clc1c(-c2nnc3n2CCCCC3)sc2ccccc12	-0.65	x
CC(OC(=O)c1cccs1)C(=O)Nc1cccc(Cl)c1Cl (configuration not stated)	0.15	0.25
O=C(Nc1ccc2oc(-c3cccnc3)nc2c1)c1ccc(-c2ccc(F)cc2)o1	2	-0.74
O=C(OCC(=O)N1CCCC1)c1ccccc1OCc1ccccc1Cl	0.2	0.645
Cc1cc(N)nn1C(=O)CSc1nc(Nc2ccc(F)cc2)c2ccccc2n1	x	4.3
COC(=O)/C=C/C(=O)N1CCN(c2ccccc2OC)CC1	1.1	-1.75
CCCCN1/C(=C2/SC(=S)N(C)C2=O)Sc2ccccc21	x	1.5
CC(=O)C12c3ccccc3C(c3ccccc31)C1C(=O)N(c3ccc(F)cc3)C(=O)C12 (configuration not stated)	x	-0.28
COc1ccc(C2Nc3ccccc3C(=O)N2c2ccc(F)cc2)cc1Cn1nc(C)c([N+](=O)[O-])c1C (configuration not stated)	x	1.35
NNc1nc2cc(Cl)ccc2nc1Cl	-0.7	1.08
Cc1cccn2c(=O)c(C=C3C(=O)NC(=S)NC3=O)c(N3CCCC3)nc12	-0.15	x
CN(C)C(=S)SCN1CCCC1=O	0	-0.75
COc1cccc(CCN2CCCC2)c1NC(=O)c1c(Cl)cccc1Cl	x	-0.245
CC(C)c1ccc(N2CSC(=S)N(c3ccc(C(C)C)cc3)C2)cc1	x	0.18
COc1ccc(CNC(=O)c2ccc(Cn3c(=S)[nH]c4ccc(Br)cc4c3=O)cc2)cc1	x	-0.66
O=C(c1ccc(F)cc1)N1N=C(c2cccs2)CC1c1ccccc1 (configuration not stated)	x	0.52
CCOC(=O)c1ccc(NC(=O)CC2SC(=Nc3ccc(S(N)(=O)=O)cc3)NC2=O)cc1 (configuration not stated)	1.2	-0.025
O=C(Oc1ccc(Cl)c2cccnc12)c1ccco1	1.65	0.445

3 compounds from above, ordered by SMILES length, ascending:
SMILES	AID504770	Ba CapD inh
CCC1CCCCN1C(=O)CSc1nc2ncccc2o1 (configuration not stated)	-0.6	-0.565
O=C(Oc1ccc(Cl)c2cccnc12)c1ccco1	1.65	0.445
COC(=O)/C=C/C(=O)N1CCN(c2ccccc2OC)CC1	1.1	-1.75

More structures
SMILES	AID504770	Ba CapD inh
CC(=O)c1ccc(N2CCN(S(=O)(=O)c3c(C)c(C)cc(C)c3C)CC2)cc1	x	8.18
COCCOC(=O)c1c(C)oc2ccc(OCc3ccc(-c4cnc(-c5ccccc5)o4)cc3)cc12	x	5.03
O=C(CSc1ccc(C(F)(F)F)cn1)N1CCc2c([nH]c3ccccc23)C1C(F)(F)F (configuration not stated)	x	-0.955
c1ccc2c(c1)sc1ccccc12	0.1	-10.1*
Cc1ccc(C(=O)ON=C2CCN(C)CC2)cc1	1.3	x
COC(=O)c1cc(OC)c(OC)cc1NC(=O)Nc1ccc(OC(F)(F)F)cc1	x	62.5
COc1ccc(NC(=O)c2cn(-c3ccccc3)nc2-c2cccnc2)cc1	1.7	-1
CCSc1nnc(NC(=O)c2ccccc2)s1	-0.35	x
CCC1=Nc2ccc(Br)cc2C(c2ccccc2)N1CC(=O)NN (configuration not stated)	1.15	23.4
CCOC(=O)n1c(SCC)nc2ccccc21	-0.45	x
Cc1ccc(-c2c[n+]3c(n2-c2ccc(C)cc2)CCCCC3)cc1	x	0.315
O=S(=O)(c1ccc(Cl)cc1)N1c2ccccc2OCC1c1ccccc1 (configuration not stated)	x	0.115
Cc1ccc(CN(C)C(=O)C2CCN(C(=O)Nc3ccccc3)CC2)o1	-0.35	x
N#CC1CCC(CNC(=O)c2sc3ccccc3c2Cl)CC1 (configuration not stated)	0.2	-0.26
Clc1cccc(Cl)c1CSc1nnc(/C=C/c2ccccc2)o1	x	0.2

A draw from above in order of length of the SMILES, rising:
SMILES	AID504770	Ba CapD inh
NNc1nc2cc(Cl)ccc2nc1Cl	-0.7	1.08
CC(SCc1ccccc1)C(=O)Nc1cccnc1 (configuration not stated)	-0.85	2.15
CCOC(=O)c1cc(CC)sc1NC(=O)C(Cl)Cl	x	0.475
C=CCN(C(=O)c1noc2c1CCCC2)c1ccccc1	0.45	-0.085
CN(CCOC(=O)Nc1ccccc1)c1ccc(C#N)cn1	1.25	3.41
CC1(C)NNC(=S)N(Cc2cccc3ccccc23)C1=O	0.05	x
CCCCN1/C(=C2/SC(=S)N(C)C2=O)Sc2ccccc21	x	1.5
O=C(OCC(=O)N1CCCC1)c1ccccc1OCc1ccccc1Cl	0.2	0.645
CCC1=NN(C(=O)c2ccccc2O)C(O)(c2ccc(Br)cc2)C1 (configuration not stated)	x	-2.92
CCN(CC)S(=O)(=O)c1cccc(C(=O)OCC(=O)c2cccs2)c1	1.8	x
O=C(Cn1cnc2c(nnn2Cc2ccccc2F)c1=O)NCc1ccc2c(c1)OCO2	-2.5	-0.435
O=C(Nc1ccc2oc(-c3cccnc3)nc2c1)c1ccc(-c2ccc(F)cc2)o1	2	-0.74
O=C1NC(=O)C(=CN2CCN(S(=O)(=O)c3ccc(Cl)cc3)CC2)C(=O)N1	-0.4	x
Cc1ccn2c(NC(=O)C(C)(C)Oc3ccc(Cl)cc3)c(-c3ccc(F)cc3)nc2c1	-0.35	73
CCOC(=O)c1[nH]c2c([N+](=O)[O-])cc(OCC)cc2c1CCN1C(=O)c2ccccc2C1=O	x	0.255
COc1ccc(C2Nc3ccccc3C(=O)N2c2ccc(F)cc2)cc1Cn1nc(C)c([N+](=O)[O-])c1C (configuration not stated)	x	1.35
